# Compound activity: PubChem BioAssay, National Center for Advancing Translational Sciences (NCATS)
# Vaccinia Venus = vaccinia inhibition (Venus reporter) | Vaccinia virus Venus reporter expression, fluorescence | Potency, µM (highest dose often 36.5 µM), without a hit: at the top dose activity change, negative = inhibition, actives largely listed as inhibitors | 0.46% of 330,000 active; active means well fitted inhibition curve with a large enough effect; inconclusive means small, poorly fitted or top-dose-only effect; inactive means no such curve, though single readings can be large or run the other way; tested in A549 cells; note: nearly all actives have a fitted effect of over 30% in size; inactives centre near -10
# VACV mCherry inh = vaccinia inhibition (mCherry reporter); 0.63% of 310,000 active; Potency, µM (titrated, usually from 36.5 µM), without a hit: top-dose activity change, negative = inhibition, most hits filed as inhibitors; AID 720579; Vaccinia virus mCherry reporter infection, fluorescence; about a quarter of the inactives have no number; active = well fitted inhibition curve with a large enough effect; inconclusive = small, poorly fitted or top-dose-only effect; inactive = no such curve, though single readings can be large or run the other way; tested in A549 cells; note: nearly all actives have a fitted effect of over 35% in size; inactives centre near -10
# * hit, by the source's call; i = inactive; ? = inconclusive; . = no result given; & = joins results of further samples; [ ] = remark or other dose. % is set by controls: 0 for no effect and ±100 for the full control effect; potency is the fitted concentration of half-maximal effect.
SMILES,Vaccinia Venus,VACV mCherry inh
CCCCCCCC(=O)OC[C@H](CO)OC(=O)CCCCCCC,-15%[3.33 µM],-18%[3.33 µM]
CC(C)(C)c1cc(C(=O)NNc2cc(C(F)(F)F)ccc2Cl)n(Cc2ccccc2)n1,?,?
CCOC(=O)CCn1nc(-c2ccccc2)cc1N,0%,-16%
O=C(O)CCCCCCCCc1cn(CCc2c[nH]c3ccccc23)nn1,-15%&-13%,-25%
CC(C)(C)c1ccc(-c2nc(SCC(=O)Nc3ccc(Cl)cc3)[nH]c(=O)c2C#N)cc1,-3%[7.34 µM],4%[7.34 µM]
CC1=C2C3OC(=O)C(C)C3CC[C@@]2(C)C=CC1=O (some centres not stated),-5%&-16%,0%
CC(=O)C1=C(C)NC(SCC(N)=O)=C(C#N)C1C (configuration not stated),-9%,-5%[1.46 µM]
COC(=O)c1[nH]c2ccc(C)cc2c1NS(=O)(=O)c1ccc(F)cc1,-20%,.
Cc1ccc(NC(=O)c2cc(=O)n(Cc3ccccc3)c(=O)[nH]2)cc1C,9%,8%
O=C(O)c1cccc(S(=O)(=O)N2CCC(Cc3ccccc3)CC2)c1,-3%,-11%
O=C(NC(c1ccc(Cl)cc1)c1cnccn1)C1CCN(Cc2ccc(Cl)cc2)CC1 (configuration not stated),-23%,-19%
COCCC(=O)Nc1ccc2c(c1)CN(C(=O)c1ccc(CSC)o1)CC2,-23%,6%
O=c1cc(CSc2ccccc2)[nH]c2ccc(F)cc12,-17%,-17%
Cc1ccc(C2(CCNCc3ccc(N(C)C)cc3)CCOC(C(C)C)C2)cc1 (configuration not stated),-21%,-7%
COc1cc(/C=C2\C(=O)NN(c3ccc(C)cc3)C2=O)cc([N+](=O)[O-])c1O,-6%,-9%
CCOC(=O)N1CCN(C(=O)c2ccc3c(c2)N(Cc2ccccc2F)C(=O)c2ccccc2S3=O)CC1 (configuration not stated),-11%,-10%
CN1CCC(=NNC(=O)CN(c2ccc(Oc3ccccc3)cc2)S(C)(=O)=O)CC1,-15%,-5%
CCCCCCCNC(=O)C1(CC2CC(c3cccc(Br)c3)=NO2)CCN(C(=O)c2ccccc2)CC1 (configuration not stated),?,i
Cc1ccc(CC(=O)Nc2ccc3c(c2)N(C)C(=O)c2ccccc2S3)cc1,-12%,-7%
CCCCN(CCCC)CC(O)Cn1c2ccccc2c(=O)c2ccccc21 (configuration not stated),-5%,-5%
O=C(CCCN1C(=O)c2cccc3cccc(c23)C1=O)OCC(=O)N1CCCCC1,-4%,-4%
CCCN(CCC)C(=O)CC(c1ccccc1)C1CCOC(C)(C)C1 (configuration not stated),-8%,-12%
Cc1ccc(C(=O)Nc2nnc(S(=O)(=O)N(C)Cc3ccco3)s2)cc1,-3%,-6%
O=S(=O)(c1ccc(Br)cc1)c1nnn2c1nc(NC1CCCCCC1)c1sccc12,-28%,-9%
CS(=O)(=O)N1CCN(C(=O)Cc2ccccc2Cl)CC1,-10%,i
Cc1nn(-c2ccccn2)c2c1-c1nc(N3CCOCC3)ncc1CC2,-9%,.
Cc1cccc(NC(=O)Nc2nnc(-c3ccccc3)o2)c1,-24%,i
COc1ccc(NC(=O)c2cccn(CC=C(C)C)c2=O)cc1,3%,-1%
CCc1ccc(OCC(=O)Nc2c(C(=O)c3ccc(Br)cc3)oc3ccccc23)cc1,-8%,-14%
O=C(NNC(=S)Nc1cccc(C(F)(F)F)c1)c1ccncc1,-15%,i
COCCNC(=S)N/N=C(\C)c1ccccc1F,-1%,-18%
O=S(=O)(NCC(c1cccs1)N1CCc2ccccc2C1)c1ccccc1 (configuration not stated),-4%,?
Cc1c(NC(=O)COC(=O)CSc2ccc([N+](=O)[O-])cc2)c(=O)n(-c2ccccc2)n1C,-9%,-16%
NC(=S)NN=C1CCC2(CCCCC2)CC1,?,?
CC1(C(=O)Nc2cccc(C(F)(F)F)c2)Cc2c(-c3ccccc3)ccnc2O1 (configuration not stated),-19%,12%
COc1cc2[nH]c(Cl)c([N+](=O)[O-])c2cc1OC,0%,-4%
CCC(=O)N1c2ccccc2CC1C(=O)NCCc1ccc(SC)cc1 (configuration not stated),4%,-3%
CCN(C(=O)c1cccs1)c1nnc(-c2ccncc2)s1,-7%,-4%
COc1ccccc1NC(=O)CSc1oc(-c2ccccc2)nc1S(=O)(=O)c1ccccc1,?,-27%
O=C(O)CCC(=O)NNC(=O)CCCOc1ccc(Cl)cc1Cl,-9%,i
C[C@@H]1CN([C@@H](C)CO)C(=O)CCCn2nncc2CO[C@@H]1CN(C)C(=O)c1ccc(N2CCN(C)CC2)cc1,-10%,-6%
COC(=O)CSc1nc2c(c(=O)n(C)c(=O)n2C)n1CCC(C)C,-2%,.
O=C(Nc1ccc(Cl)cc1)NC1(C(=O)NCCCN2CCOCC2)CCCCC1,-17%,i
CC(=O)c1c(O)c(C)c(-c2ccccc2)n(-c2ccccc2)c1=O,-2%,.
CCCc1ccc2oc(C(=O)NCc3nnc(C)o3)c(C)c2c1,-16%,-14%
COc1ccc(NC(=O)CN2C(=O)C(C)Oc3ccc(C)cc32)cc1 (configuration not stated),-8%,-17%
Cc1cc(Br)cn2c(Cc3ccsc3)c(-c3ccc(F)cc3)nc12,-7%,6%
O=C(NCC1CCCO1)c1ccc(COc2ccc(F)cc2)o1 (configuration not stated),-9%,-11%
S=C(c1ccc(-c2ccccc2)o1)N1CCCCC1,-16%,-7%
COc1ccc(CC(N)c2csc(NC(=O)c3ccc(F)cc3)n2)cc1 (configuration not stated),?,?
Cc1ccc(Cn2c(=O)c3c(ncn3C)n(C)c2=O)cc1,-18%,-14%
CCCOc1ccc(/C=N/Nc2ccccn2)cc1OC,-11%,-20%
COc1ccc(Cl)cc1S(=O)(=O)N1CCC(C(=O)NCC2CCCO2)CC1 (configuration not stated),-4%,i
COc1ccc(S(=O)(=O)N(CC(=O)N/N=C/c2cccs2)c2ccc(C)cc2)cc1OC,-28%,.
CCOC(=O)C1=C(C)Nc2nc(C)nn2C1c1ccc(OCC)c(OC)c1 (configuration not stated),0%,-8%
CC(C(=O)O)n1cnc2sc3c(c2c1=O)CCCC3 (configuration not stated),-15%,-4%
CCOc1ccc(Nc2oc(/C=C/c3cccc(OC)c3)nc2C#N)cc1,-2%,-18%
O=C(c1cc(COc2c(F)cccc2F)on1)N1CCC(c2ccccc2Cl)C1 (configuration not stated),-6%,-2%
CC1=CC(=O)Nc2ncccc2O1,-1%,-5%
COCCCNC(=S)N1CCN(S(=O)(=O)c2ccc(OC)cc2)CC1,-21%,-9%
# Following part:
SMILES,Vaccinia Venus,VACV mCherry inh
O=C(c1ccc2snnc2c1)N1CCSCC1,-9%,.
CCC(C)[C@H](NC(=O)N1CCN(C)CC1)C(=O)OC (some centres not stated),-9%,i
Cc1cc(C)cc(N2C(=O)CSC23C(=O)N(CC(=O)Nc2ccc(F)cc2F)c2ccccc23)c1 (configuration not stated),-5%,-7%
Cc1cc(NC(=O)CSc2nc3ccccc3n2CC(C)C)no1,-6%,i
COc1cc(-c2nnc(SCCOc3ccc(Cl)cc3C)o2)cc(OC)c1OC,-10%,-17%
CC[C@@H](C)C(NC(=O)OC(C)(C)C)c1cn([C@@H](Cc2cc3ccccc3[nH]2)C(=O)N2CCN(C(=O)OC(C)(C)C)CC2)nn1 (some centres not stated),?,-23%
CN(C)C1C(=O)C(C(N)=O)=C(O)[C@@]2(O)C(=O)C3=C(O)c4c(O)ccc(Cl)c4[C@](C)(O)C3CC12 (some centres not stated),8%,-18%
COc1ccc(OC)c(-c2csc(NC(=O)Cc3ccccc3F)n2)c1,-8%,?
CN(C)c1ccc(/C=C/c2ccnc3ccc(I)cc23)cc1,25%,-20%
COC(=O)C1=CN(c2ccc(F)cc2)C=C(C(=O)OC)C1c1cccc([N+](=O)[O-])c1,-15%,-28%
Cc1ccccc1CN(C)C(=O)COC(=O)CSc1ccc([N+](=O)[O-])cc1,-9%,-9%
Cc1nnc(SCCC(C)C)[nH]c1=O,?,-17%
CC(C)Cn1c(=O)c2ccccc2n2c(CCC(=O)NCC3CCCO3)nnc12 (configuration not stated),-16%,i
Cc1cc(NC(=O)CN2CCC(n3nnc4cc(C(F)(F)F)ccc43)CC2)no1,-19%,-27%
Cc1nc2sc(C(=O)O)c(N)c2c2c1COC(C)(C)C2,-7%,-16%
O=C(O)C1CCN(c2nc(-c3ccccc3)c3cc(Br)ccc3n2)CC1,-5%,-16%
Cc1c(NC(=O)CSC2=C(C#N)C(c3ccccc3F)CC(=O)N2)c(=O)n(-c2ccccc2)n1C (configuration not stated),-11%,-8%
CCOC(=O)[C@]12CCC=C1N(Cc1cccc3ccccc13)C(=O)[C@H](CC(=O)N1CCSCC1)C2,-8%,i
COc1ccccc1-c1nnc(NC(=O)c2ccc(S(=O)(=O)N(C)C)cc2)o1,?,-25%
COc1cc2ccccc2cc1C(=O)N1CCCC(C(F)(F)F)C1 (configuration not stated),-24%,-4%
COc1ccc(CNS(=O)(=O)c2ccc3c(c2)CCN3C(=O)C2CC2)cc1,-10%,i
COc1ccc(NC(=O)c2cc(C3CCCCN3C(=O)OCc3ccccc3)on2)c(C)c1 (configuration not stated),-8%,i
CCCCN1C[C@H](C)[C@@H](CC(=O)Nc2ccc(OC)cc2)C1=O,-7%,-13%
Cc1nn(Cc2ccccc2Cl)c(C)c1NC(=O)c1cc(C(C)C)on1,-10%,-14%
Cc1ccc(C)c(NS(=O)(=O)c2cc(C(=O)N3CCCC3)ccc2Cl)c1,-7%,-6%
CCc1ccc(-n2c(SCC(=O)NC(C)CC)nc3n[nH]c(C)c3c2=N)cc1 (configuration not stated),-26%,-29%
CCN(CC)CCNC(=O)c1ccc(NC(=O)c2ccc(F)cc2F)cc1,-13%,-8%
O=S(=O)(O)Sc1ccccc1,-8%,-17%
CCOC(=O)c1nc(NCc2ccccc2)sc1C,-5%,-9%
COc1cccc(-c2nc3n(n2)C(c2cccs2)C(C(=O)Nc2cccnc2)=C(C)N3)c1 (configuration not stated),-3%,-8%
O=C1[C@H]2[C@@H](c3ccc(Cl)cc3)N3C(=O)N(c4cccc(Br)c4)C(=O)[C@@]3(Cc3ccc(Cl)cc3)[C@H]2C(=O)N1C1CCCCC1,-13%,-8%
O=C(O)c1ccccc1SCC(=O)N1CCc2ccccc21,-8%,i
Cn1cccc2[nH]c(=O)nc1-2,-2%,-15%
O=C(Cn1c(SCc2ccc(F)cc2)nc2cccnc21)Nc1ccccc1F,-7%,7%
COc1ccc(-n2nc(C(=O)N3CCC(C#N)CC3)c3c4ccccc4n(C)c3c2=O)cc1,-16%,-10%
CCOC(=O)N1CCN(C(=O)CN2C(=O)CC(C)(C)S(=O)(=O)c3ccccc32)CC1,-6%,-18%
COc1ccc2occ(C(=O)c3ccccc3)c2c1,-9%,-3%
O=C(c1ccccc1Sc1ccc([N+](=O)[O-])cc1Cl)N1CCOCC1,-6%,-21%
Cc1cccc(OCc2ccc(-c3nc(C#N)c(N4CCC(C(N)=O)CC4)o3)o2)c1,-6%,-14%
CC(=O)NCCNC(=O)c1oc2ccccc2c1CSc1ncn[nH]1,-4%,-14%
Cc1cc2ncn(C(=O)c3c(-c4ccccc4)noc3C)c2cc1C,-25%,?
O=C(COC(=O)c1ccc([N+](=O)[O-])s1)Nc1ccccc1,-19%,-6%
COCCn1nnnc1C(c1ccccc1OC)N1CCN(C(=O)c2ccco2)CC1 (configuration not stated),-8%,-4%
COc1cc(C2c3cc4c(cc3OC(C)(N3CCCC3)C2C)OCO4)cc(OC)c1OC (configuration not stated),?,?
O=C(On1c(-c2ccccc2)nc2ccccc2c1=O)c1ccco1,-11%,i
CC(C)n1c(SCC(=O)N2CCN(C(=O)c3ccco3)CC2)nc2c1c(=O)n(C)c(=O)n2C,-6%,22%
COc1cc(CC(=O)NCCc2ccc(OCc3ccccc3)cc2)c([N+](=O)[O-])cc1OC,-28%,.
c1ccc(-c2csc3ncnc(N4CCc5ccccc5C4)c23)cc1,-17%,?
Cc1cccc(NC(=O)CC2Nc3cccc4cccc(c34)NC2=O)c1 (configuration not stated),-8%&-9%,-8%
CC(=O)Nc1cc(C(=O)OCC(=O)c2ccc(C)cc2)ccc1C,-3%,-9%
Cc1ccc(C(=O)C[n+]2ccc(-c3nnc4n3CCC4)cc2)cc1,-2%,i
CC(C)NC(=O)N(C)C[C@H]1Oc2c(NC(=O)C3CC3)cccc2C(=O)N([C@H](C)CO)C[C@@H]1C,-5%,-5%

# Grouped by structure, those above containing a thiophene ring, fused or not.
SMILES,Vaccinia Venus,VACV mCherry inh
O=S(=O)(c1ccc(Br)cc1)c1nnn2c1nc(NC1CCCCCC1)c1sccc12,-28%,-9%
O=S(=O)(NCC(c1cccs1)N1CCc2ccccc2C1)c1ccccc1 (configuration not stated),-4%,?
CCN(C(=O)c1cccs1)c1nnc(-c2ccncc2)s1,-7%,-4%
Cc1cc(Br)cn2c(Cc3ccsc3)c(-c3ccc(F)cc3)nc12,-7%,6%
COc1ccc(S(=O)(=O)N(CC(=O)N/N=C/c2cccs2)c2ccc(C)cc2)cc1OC,-28%,.
CC(C(=O)O)n1cnc2sc3c(c2c1=O)CCCC3 (configuration not stated),-15%,-4%
Cc1nc2sc(C(=O)O)c(N)c2c2c1COC(C)(C)C2,-7%,-16%
COc1cccc(-c2nc3n(n2)C(c2cccs2)C(C(=O)Nc2cccnc2)=C(C)N3)c1 (configuration not stated),-3%,-8%
O=C(COC(=O)c1ccc([N+](=O)[O-])s1)Nc1ccccc1,-19%,-6%
c1ccc(-c2csc3ncnc(N4CCc5ccccc5C4)c23)cc1,-17%,?
